Screening data (PubChem)
CSC inhib = blocks cancer stem cells | cancer stem cell-like cells viability, luminescence | inhibition, % at 7.5 µM | actives 1.1% (n = 300,000);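 active = mean at 75% or more and at least half the replicates too; inconclusive = mean and replicates disagree; tested in HMLE shEcad cells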;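 also: 0% = median of negative and 100% = median of positive control wells; the first replicate is given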
Yeast UUG start = yeast start codon fidelity modulation | activity score, % at 18.7 µM | AID 602363 | actives 0.13% (n = 350,000) | S. cerevisiae UUG-firefly luciferase reporter, luminescence/redox ratio;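 active = replicate mean at a twofold rise or more, about +100% in these data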;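 also: firefly luciferase made from a UUG start codon reports start codon fidelity; reporter light over untreated wells divided by growth signal over untreated wells; some hits fall short of that in this replicate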
MT1-MMP act inh = blocks activation of human MT1-MMP | P50281 | HT1080 RFP-PRO-GFP cells, GFP/RFP ratio fluorescence, overnight; percent of plate control window, DMSO zero | GFP/RFP ratio change, % at 20 µM | actives 0.061% (n = 360,000);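 active = GFP/RFP ratio change of at least 30% with cell ATP level not reduced by more than half and red fluorescence within 50% of control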; also: strong numbers were not always called active
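Compound: 20 µM single dose, 1% DMSO / System: HT1080 RFP-PRO-GFP cells / Controls: DMSO and RFP-L50D-GFP cell wells / Read-out basis: GFP/RFP fluorescence ratio / Schedule: overnight compound exposure at 37 °C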
HIV Env fusion = blocks HIV Env-driven cell-cell fusion | HeLa-JRFL Env/CEM21 cell fusion, luciferase | inhibition, % at 12.3 µM | actives 1.1% (n = 360,000) | AID 651610;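 active = mean replicate inhibition score of at least 50 and every replicate individually at or above 50; inconclusive = only one of the two criteria met; inactive = mean below 50 and not all replicates reaching 50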;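 also: 0% = plate neutral controls and 100% = maraviroc near 300 nM; one replicate is shown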
Rce1 inh = inhibitors of yeast Ras-converting enzyme. calls only. yeast membranes, quenched prenylated peptide cleavage fluorescence. AID 2563. actives 0.27% (n = 290,000);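 active = fall in fluorescence gain of 50% or more versus controls, with final raw signal at or below 3038400; inconclusive = same 50% fall but final raw signal above 3038400; inactive = fall in fluorescence gain under 50%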;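 also: plate controls were neutral control wells for no effect and wells lacking membranes for full effect; tested at 10 µM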
Target sequence (Q03530 whole entry, looked up): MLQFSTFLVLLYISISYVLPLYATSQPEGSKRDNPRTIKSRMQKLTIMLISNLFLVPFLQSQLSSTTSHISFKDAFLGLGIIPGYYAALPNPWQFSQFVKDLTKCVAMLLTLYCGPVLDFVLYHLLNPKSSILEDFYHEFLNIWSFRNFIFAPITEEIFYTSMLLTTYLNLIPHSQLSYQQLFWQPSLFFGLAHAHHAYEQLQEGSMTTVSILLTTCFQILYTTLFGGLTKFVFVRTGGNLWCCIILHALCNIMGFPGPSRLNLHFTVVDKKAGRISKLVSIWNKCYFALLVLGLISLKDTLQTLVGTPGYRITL
eIF4H FP inh = inhibitors of RNA binding by human eIF4H. Q15056. eIF4H fluorescence polarization binding assay. inhibition, % at 35 µM. actives 0.94% (n = 290,000). AID 2012;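 active = 50% or more with normal probe brightness, or confirmed in later tests; inconclusive = above 50% with abnormal brightness, or retests that disagree; inactive = below 50% or failed in later tests; about a fifth of its hits are not listed in these tables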;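 also: calls also rest on retests at 20 µM and on dose response follow-up; 0% = protein and probe with vehicle and 100% = probe without protein; strong numbers were not always called active; many hits fall short of the cut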
PABP FP inh = PABP-poly(A) binding inhibition; actives 1% (n = 290,000); inhibition, % at 35 µM; P11940; PABP-poly(A) RNA binding, fluorescence polarization;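 active = 50% or more with normal probe brightness, or confirmed in later tests; inconclusive = above 50% with abnormal brightness, or retests that disagree; inactive = below 50% or failed in later tests; about a fifth of its hits are not listed in these tables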;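 also: calls also rest on retests at 20 µM and on dose response follow-up; controls were probe without protein and protein plus probe with vehicle; some compounds called inactive have numbers as strong as hits; many hits fall short of the cut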
Target sequence (P11940 whole entry, looked up): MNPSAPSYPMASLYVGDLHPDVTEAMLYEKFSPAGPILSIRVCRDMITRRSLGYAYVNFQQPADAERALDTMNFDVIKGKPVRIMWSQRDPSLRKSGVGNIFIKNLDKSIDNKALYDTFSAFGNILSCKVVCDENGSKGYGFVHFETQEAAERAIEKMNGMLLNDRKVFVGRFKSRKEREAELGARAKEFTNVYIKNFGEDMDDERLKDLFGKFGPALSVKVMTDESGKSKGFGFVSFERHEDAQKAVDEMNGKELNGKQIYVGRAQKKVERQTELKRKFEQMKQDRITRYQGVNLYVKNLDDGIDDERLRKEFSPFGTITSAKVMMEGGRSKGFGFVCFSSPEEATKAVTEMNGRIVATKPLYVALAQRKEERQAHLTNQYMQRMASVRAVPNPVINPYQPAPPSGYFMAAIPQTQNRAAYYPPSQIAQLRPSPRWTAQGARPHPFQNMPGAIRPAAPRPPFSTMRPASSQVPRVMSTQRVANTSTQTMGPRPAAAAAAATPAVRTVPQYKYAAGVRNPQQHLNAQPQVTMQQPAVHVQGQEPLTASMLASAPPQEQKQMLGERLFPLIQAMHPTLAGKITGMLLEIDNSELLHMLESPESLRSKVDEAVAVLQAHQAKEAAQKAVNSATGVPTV
eIF4H FP inh retest = also measured in eIF4H FP inh; calls as there; inhibition, %; compound at 20 µM; confirmation average;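 mean of two retest wells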
PABP FP inh retest = recorded beside PABP FP inh, whose call it bears; inhibition, %; compound at 20 µM; confirmation repeats;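 mean of two retest wells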
MT1-MMP act inh RFP = second read-out of MT1-MMP act inh, no call of its own (marks repeat the call); RFP signal change, %; measured here: RFP expression control read;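 0 = vehicle wells; hits needed this value within 50% of zero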
Numbers without * were called inactive; i = inactive; ? = inconclusive; nt = no result given; & = joins results of further samples; [ ] = another dose, or the depositor's remark.

SMILES | CSC inhib | Yeast UUG start | MT1-MMP act inh | MT1-MMP act inh RFP | HIV Env fusion | Rce1 inh | eIF4H FP inh | PABP FP inh | others
Cc1nc2scc(-c3ccccc3)c2c(=O)n1N=C1C=CC(=O)C=C1 | nt | nt | nt | nt | -73 | i | 71* | 20* | eIF4H FP inh retest=93*;PABP FP inh retest=78*
O=C(C1=C[C@@H](C2CCCCC2)C[C@@H](OCc2ccc(CO)cc2)O1)N1CCN(Cc2ccccc2)CC1 | 10 | 18&3 | -4 | -11 | 3[16.7 µM] | i | 4 | 5
O=C(Nc1ccon1)c1cc2c(s1)CCCCCC2 | 19 | nt | 10 | 0 | -106 | i | -5 | -6
CC1=CC(C)(C)N(C(=O)CN2C(=O)c3ccccc3C2=O)c2ccc(C)cc21 | -7 | 7 | -5 | -2 | 9 | i | 6 | 4
Cc1ccc(S(=O)(=O)N2CCN(Cc3ccccc3C(F)(F)F)CC2)cc1 | -4 | 70 | 4 | 5 | nt | i | 4 | -17
O=C(Nc1ccc(-n2ccnc2P(=O)(O)c2ccccc2)cc1)c1ccccc1Br | -14 | nt | -4 | -3 | nt | i | 5 | 10
c1ccc(-c2cc3c(NCC4COc5ccccc5O4)ncnc3s2)cc1 (stereo not drawn) | ? | nt | 2 | -3 | 22 | i | -3 | 2
CCCC1(C(=O)OC)NC(c2ccco2)C2C(=O)N(C)C(=O)C21 (stereo not drawn) | -3 | -10 | -1 | 1 | 9 | i | -5 | -1
Cc1cnc(NC(=O)CCCSc2nc3ccccc3s2)s1 | -6 | -19 | 1 | 2 | 2 | nt | -14 | -6
COc1ccc(NC(=O)c2cccnc2Nc2ccccc2)cc1 | 0 | -31 | -7 | -6 | 27 | i | -12 | -14
COCCCNC(=O)CNC(=O)c1nn(-c2ccc(OC)c(Cl)c2)c(=O)c2ccccc12 | -4 | nt | 4 | 9 | 7 | i | 92 | 3 | eIF4H FP inh retest=2;PABP FP inh retest=12
O=C1CCCN1CCCNc1ncnc2c1[nH]c1ccccc12 | -17 | -12 | 5 | -3 | 33 | i | 0 | -8

By substructure: those above with a thiophene ring, fused or not
SMILES | CSC inhib | Yeast UUG start | MT1-MMP act inh | MT1-MMP act inh RFP | HIV Env fusion | Rce1 inh | eIF4H FP inh | PABP FP inh | others
Cc1nc2scc(-c3ccccc3)c2c(=O)n1N=C1C=CC(=O)C=C1 | nt | nt | nt | nt | -73 | i | 71* | 20* | eIF4H FP inh retest=93*;PABP FP inh retest=78*
O=C(Nc1ccon1)c1cc2c(s1)CCCCCC2 | 19 | nt | 10 | 0 | -106 | i | -5 | -6
c1ccc(-c2cc3c(NCC4COc5ccccc5O4)ncnc3s2)cc1 (stereo not drawn) | ? | nt | 2 | -3 | 22 | i | -3 | 2

Going on with the list:
SMILES | CSC inhib | Yeast UUG start | MT1-MMP act inh | MT1-MMP act inh RFP | HIV Env fusion | Rce1 inh | eIF4H FP inh | PABP FP inh | others
CCNc1ccc(S(=O)(=O)N(C)C)cc1NCC(=O)Nc1ccccc1Cl | -6 | -5 | 4 | -4 | 7 | i | 9 | -1
COC(=O)C1(CC2CC(c3ccc(Cl)cc3)=NO2)CCN(C(=O)OC(C)(C)C)CC1 (stereo not drawn) | 1 | -2 | 2 | -7 | -8 | i | nt | nt
O=C1CCCc2nn(-c3ccccc3)nc21 | -16 | -4 | -6 | -4 | -27 | i | 6 | 6
COc1cc(NC(=O)c2c(OC)cccc2OC)ccc1NC(=O)c1cc2ccccc2o1 | -7 | -16 | 2 | 1 | -86 | i | 1 | 2
CCOC(=O)C1CCN(C(=O)c2oc3ccc(S(=O)(=O)N4CC(C)CC(C)C4)cc3c2C)CC1 (stereo not drawn) | 5 | -5 | 7 | -7 | -8 | i | 5 | -12
COc1ccc(Br)cc1CN1CCN(c2ncccn2)CC1 | -12 | -1 | -1 | -2 | 13 | i | nt | nt
CC1(C)OC(=O)C(=NNc2ccc(Br)cc2)C(=O)O1 | 29 | nt | -1 | -3 | 8 | i | -3 | -2
CCOC(=O)C(C)NC(=O)c1cn(-c2ccc(OC)cc2)c(=O)c2ccccc12 (stereo not drawn) | -12 | 5 | 2 | 6 | 2 | i | 8 | 7
CCOC(=O)CSc1nc2ccccc2c(=O)[nH]1 | -2 | -9 | -1 | 0 | 22 | i | 2 | -7
CC(=O)c1c(O)cc(=O)n(-c2ccccc2)c1-c1ccc(C)cc1 | nt | -8 | 5 | 0 | nt | i | -8 | -9
O=C(COC(=O)C12CC3CC(CC(C3)C1)C2)NCCCc1ccccc1 | 15 | nt | -2 | 2 | 11 | i | -7 | 1
CC1=C(C(=O)OCC2CCCCC2)C(c2cccc(O)c2)NC(=O)N1 (stereo not drawn) | -9 | 5 | -7 | -5 | nt | i | -9 | -13
COc1ccc(/C=C2\CCCC3C2=NN(C(=O)c2ccco2)C3c2ccc(OC)c(OC)c2)cc1OC (stereo not drawn) | 0 | 1 | -4 | -12 | nt | i | -8 | 0
Nc1ccc2c(c1)ncn2CCCn1cnc2cc(N)ccc21 | nt | -30 | 1 | 6 | nt | i | 8 | -4
COc1cc(NC(=S)NC(=O)CC(C)C)ccc1NC(=O)c1cc2ccccc2o1 | -3 | -14 | 4 | 2 | -21 | i | 0 | 13
CC(C)CC(=O)N1CCN(Cc2ccc(Br)cc2)CC1 | 7 | -1 | 0 | -2 | 0 | i | 8 | 9
Cc1ccc(C)c(-n2cc(CN3CCN(C(=O)c4ncn[nH]4)CC3)c(-c3ccccc3)n2)c1 | -10 | -11 | 0 | 0 | -2 | i | 2 | 11
COc1ccc(Cl)cc1NC(=O)CSc1nc(N2CCOCC2)nc(N2CCOCC2)n1 | -2 | -15 | -1 | 1 | 16 | i | 1 | -2
FC(F)Oc1ccccc1NC(=S)Nc1cccc(Cl)c1Cl | nt | nt | 2 | 5 | -11 | i | -4 | -4
COc1ccc(/C(C)=N/NC(=O)CNC(=O)c2cccs2)cc1OC | 11 | -6 | 2 | 5 | 20 | i | 0 | -9
COc1ccc(CC(=O)N[C@@H]2c3cc(OC)c(OC)cc3C[C@H]2O)cc1 | nt | -12 | 1 | 2 | 1 | nt | nt | nt
COc1cc(C(=O)N2CCCCCCC2)ccc1OC1CCN(C(C)=O)CC1 | -10 | -5 | 2 | 0 | nt | i | -1 | -10
N#C/C(=C\N1CCOCC1)c1ccccc1 | 10 | nt | 2 | 3 | -101 | i | 0 | -3
Cn1c(=O)[nH]c(=O)c2c1ncn2CCN1CCOCC1 | 0 | -9 | 1 | 5 | nt | i | 1 | 10
CCn1c2c(c(=N)c3ccccc31)CCC2 | -12 | nt | 0 | -26 | 18 | i | 4 | 8
CCCCC1=CC2=CC(=O)C(C)(OC(=O)CC)C(=O)C2=CN1Cc1ccc2c(c1)OCO2 (stereo not drawn) | -8 | -25 | 2 | 10 | -15 | i | 16 | 16
COc1cccc(Oc2nccc(N(C)C)c2C#N)c1 | 1 | -6 | -2 | -5 | 7 | nt | -8 | 0
COc1cccc(CNC(=O)C(Cc2ccccc2)n2cccc2)c1 (stereo not drawn) | 6 | nt | 0 | -1 | -13 | i | 0 | -10
Cc1cc(C)c(NC(=O)CSc2ccc3nnc(CCNC(=O)c4ccccc4)n3n2)c(C)c1 | -2 | -15 | 13 | 6 | nt | i | -6 | 20
Cn1c(N=Nc2ccc(N3CCOCC3)cc2)[n+](C)c2ccccc21 | nt | 29 | 7 | -5 | 12 | i | 3 | 13
CCOC(=O)N1C(=O)[C@](c2ccc(Cl)cc2)(C(C)C)N1C(=O)OCC | 17 | -8 | -8 | 1 | 45 | i | -18 | -8
C[C@@H]1CCCCO[C@H](CN(C)C(=O)Nc2ccc(C(F)(F)F)cc2)[C@@H](C)CN([C@H](C)CO)C(=O)c2cc(NC(=O)c3ccncc3)ccc2O1 | nt | -8 | -4 | -1 | 18[16.7 µM] | nt | nt | nt
Cc1nccc(-c2cc(-c3ccc(Cl)cc3Cl)no2)n1 | -7 | nt | 4 | -2 | -126 | i | -11 | -18
Cn1nnc2c(C(N)=O)ncn2c1=O | nt | -1 | 8 | 9 | 19 | nt | 3 | 0
Cc1ccc2oc(-c3ccco3)nc2c1 | -17 | -3 | -3 | 1 | nt | i | -8 | -4
Nc1n[nH]c(-c2ccccc2[N+](=O)[O-])n1 | nt | nt | -4 | 0 | 11 | i | 1 | -9

By substructure, the entries above containing a CF3 group.
SMILES | CSC inhib | Yeast UUG start | MT1-MMP act inh | MT1-MMP act inh RFP | HIV Env fusion | Rce1 inh | eIF4H FP inh | PABP FP inh | others
Cc1ccc(S(=O)(=O)N2CCN(Cc3ccccc3C(F)(F)F)CC2)cc1 | -4 | 70 | 4 | 5 | nt | i | 4 | -17
C[C@@H]1CCCCO[C@H](CN(C)C(=O)Nc2ccc(C(F)(F)F)cc2)[C@@H](C)CN([C@H](C)CO)C(=O)c2cc(NC(=O)c3ccncc3)ccc2O1 | nt | -8 | -4 | -1 | 18[16.7 µM] | nt | nt | nt

Later entries.
SMILES | CSC inhib | Yeast UUG start | MT1-MMP act inh | MT1-MMP act inh RFP | HIV Env fusion | Rce1 inh | eIF4H FP inh | PABP FP inh | others
O=C(Cc1ccc(Cl)cc1)Nc1ccc2c(c1)C(=O)NC2=O | 91* | nt | 0 | -2 | 18 | i | 0 | -4
COCc1c(C(=O)OCC(=O)N2CCCC2=O)oc2ccccc12 | nt | -12 | 0 | 5 | 0 | nt | nt | nt
Cc1ccc(Cl)c(OC(=O)C2CSC3(C)CCC(=O)N23)c1 (stereo not drawn) | -10 | 3 | 0 | 3 | -23 | i | nt | nt
CC(=O)c1cccc(NC(=O)CC2SC(N3CCCCC3)=NC2=O)c1 (stereo not drawn) | -6 | -13 | 1 | 0 | nt | i | -6 | 9
O=C(Nc1ccc(F)c(F)c1)C1CCN(S(=O)(=O)c2cccc3nonc23)CC1 | 9 | -8 | 3 | -10 | 9 | i | 3 | -2
N/C(=N\OC(=O)C12CC3CC(CC(C3)C1)C2)c1ccncc1 | 22 | -3 | 3 | 1 | -4 | i | -1 | 2
Cn1c(=O)c2c(nc(N3CCOCC3)n2Cc2c(F)cccc2Cl)n(C)c1=O | nt | -20 | -1 | -2 | nt | i | 13 | 2
O=C(CCS(=O)(=O)Cc1ccccc1)N1CCN(Cc2ccccc2)CC1 | 7 | nt | 1 | 2 | nt | i | 4 | 6
CC12CCC(C(=O)NCc3ccccn3)(OC1=O)C2(C)C (stereo not drawn) | -17 | -12 | 5 | 9 | nt | i | -2 | -1
COc1ccc(CN/C=C2\CCCCC2=O)cc1 | -5 | 6 | -3 | -1 | nt | i | 2 | 16
CCOC(=O)C1(Cc2ccc(OC)cc2)CCN(C(=O)C2CCCO2)CC1 (stereo not drawn) | -8 | nt | -1 | -1 | 10 | i | 1 | -1
CCOC(=O)CSc1nnc(CNC(=O)c2ccc(S(=O)(=O)N3CCCCC3)cc2)n1C | 0 | 6 | -8 | -1 | -19 | nt | 10 | 2
CCCCN(CCCC)c1nc2ccccc2nc1NS(=O)(=O)c1ccc(NC(C)=O)cc1 | 6 | -18 | 1 | 0 | 22 | i | 4 | 0

A portion of the library; the hit share may differ from the screen's.
